Assay outcomes as filed in PubChem.
VDR inhibitor – blocks the human vitamin D receptor; 400,000 tested, 0.93% active; Potency, µM, inactives show max response, negative = inhibition, most hits filed as inhibitors; VDR-SRC2-3 peptide fluorescence polarization, 2 h; active = well fitted inhibition curve with a large enough effect; inconclusive = small, poorly fitted or top-dose-only effect, or another doubt; inactive = no such curve, though single readings can be large or run the other way; also: series mostly up to about 120 µM
Target sequence (P11473 whole entry, looked up): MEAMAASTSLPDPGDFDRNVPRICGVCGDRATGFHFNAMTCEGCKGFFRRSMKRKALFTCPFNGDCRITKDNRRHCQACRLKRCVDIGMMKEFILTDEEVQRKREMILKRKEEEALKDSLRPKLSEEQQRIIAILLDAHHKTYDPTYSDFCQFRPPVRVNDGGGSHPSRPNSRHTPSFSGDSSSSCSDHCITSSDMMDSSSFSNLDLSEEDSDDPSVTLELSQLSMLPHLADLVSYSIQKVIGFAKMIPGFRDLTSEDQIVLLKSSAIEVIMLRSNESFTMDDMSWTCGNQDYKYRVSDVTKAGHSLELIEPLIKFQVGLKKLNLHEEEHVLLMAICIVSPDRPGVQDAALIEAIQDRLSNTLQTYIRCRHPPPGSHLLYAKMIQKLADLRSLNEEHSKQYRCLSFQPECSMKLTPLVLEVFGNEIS
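Fluorescence polarization assay measuring small-molecule disruption of VDR binding to the coregulator peptide SRC2-3. Compounds were pin-transferred (23 nl) into the reagent mix and incubated 2 h at room temperature before reading.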
Numbers without * were called inactive; u = inconclusive; & = joins results of further samples; ! = a repeat was not active; [ ] = remark or other dose. % is scaled to controls: 0 for no effect and ±100 for the full control effect; potency is read from the fitted curve at half-maximal effect.

VDR inhibitor | canonical_smiles
-4% | COC(=O)c1ccc(OC)c(Cn2c(=O)n(C)c(=O)c3ccccc32)c1
-1% | CN1CCC(OC(=O)c2cc3cc(Cl)cc(Cl)c3oc2=O)CC1
14% | CCOC(=O)CSc1nnc(NC(=O)c2cccc(S(=O)(=O)N3CCCCCC3)c2)s1
-1% | COC(=O)c1cccc(CN2C(=O)SC(Nc3ccccc3)C2=O)c1 (stereo unspecified)
-9% | O=C(NCc1ccncc1)C1CCCN(S(=O)(=O)c2cc(Cl)ccc2Cl)C1 (stereo unspecified)
-11%&11% | C[C@@H]1CCC[C@H](C)N1NC(=O)c1ccc(Cl)c(S(N)(=O)=O)c1
-4% | O=C(COc1ccc2ccccc2c1Br)N1CCOCC1
2% | Cc1cccc2cc(CNCc3ccccc3)c(Cl)nc12
1% | COc1ccc(CCNC(=O)c2ccc(CNc3c(N4CCOCC4)c(=O)c3=O)cc2)cc1OC
-1% | Cc1ccc(-c2csc3ncnc(N4CCN(S(=O)(=O)c5cccs5)CC4)c23)cc1

New compounds follow.
VDR inhibitor | canonical_smiles
-4% | O=C(NCc1ccc2c(c1)OCO2)c1ccc(Cl)c(S(=O)(=O)N2CCOCC2)c1
-6% | COc1ccccc1Nc1nnc(SCC(=O)Nc2nc(-c3ccc(F)cc3)cs2)s1
2% | CN(Cc1c(O)ccc2c1oc(=O)c1ccccc12)C1CCCCC1
-18% | Nc1cccc(C(=O)OCC(=O)Nc2cccc3c2C(=O)c2ccccc2C3=O)c1
0% | O=[N+]([O-])c1ccc2nc(-c3ccccn3)[nH]c2c1
-14% | CC(C)c1ccc(-n2c(-c3ccccc3)c[n+]3c2CCc2ccccc2-3)cc1
-7% | COc1ccccc1N1CCN(C(=O)CCc2nnc3ccc(N4CCOCC4)nn23)CC1
-23% | C/C(=C\C(=S)Nc1ccccc1)Nc1ccccc1
-13% | O=C(NCCCn1ccnc1)c1ccc(Br)c(S(=O)(=O)N2CCOCC2)c1
9% | CCCCOCCCn1cnc2c([nH]c3cc(OC)ccc32)c1=O

(list continues)
VDR inhibitor | canonical_smiles
6% | COc1cccc(C(=O)Nc2cccc(OCC(=O)c3ccccc3)c2)c1
0% | CC1CCCC(C)N1C(=O)CSc1nnnn1Cc1ccccc1 (stereo unspecified)
-4% | O=C1CCCN1CCCNc1ncnc2sccc12
-6% | O=C(c1ccc2c(=O)n(Cc3ccco3)c(=S)[nH]c2c1)N1CCN(Cc2ccc3c(c2)OCO3)CC1
-9% | CN(C)S(=O)(=O)Nc1ccc(C(=O)O)cc1
12% | Nc1ccc2c(c1)C(=O)c1ccc(Br)cc1-2
19% | COc1ccc2c(c1)c(C(=O)N/N=C/c1ccc(Cl)cc1)c(C)n2C
9% | CN1CCN(CCCNC(=O)CCCOc2cc(=O)n(C)c3ccccc23)CC1
14% | COC(=O)[C@@H](Cc1ccccc1)NS(=O)(=O)N[C@H](Cc1ccccc1)C(=O)OC
4% | COc1cc(/C=N/N=C(/N)c2nonc2N)cc(Br)c1OCc1ccccc1C

Further structures follow:
VDR inhibitor | canonical_smiles
-4% | CC(NC(=O)C(C)(C)C)c1nc2ccccc2n1C (stereo unspecified)
-6% | C=CCSc1nnc2c(n1)OC(c1cccnc1)Nc1ccccc1-2 (stereo unspecified)
-4% | CCc1nc(N2CCCC2)c(C#N)c2c1CCCC2
-3% | Cc1[nH]nc2cn[nH]c12
45µM*! | CO[C@H]1C[C@@H]2CC[C@@H](C)[C@@](O)(O2)C(=O)C(=O)N2CCCC[C@H]2C(=O)OC([C@H](C)C[C@@H]2CC[C@@H](O)[C@H](OC)C2)CC(=O)[C@H](C)/C=C(\C)[C@@H](O)[C@@H](OC)C(=O)[C@H](C)C[C@H](C)/C=C/C=C/C=C/1C (stereo partly specified)
-27% | O=C(NCC(c1ccco1)N1CCOCC1)c1c(F)cccc1F (stereo unspecified)
12% | Cc1ccccc1NS(=O)(=O)c1ccc(OCC(=O)N2CCCC2)cc1
3% | Cc1onc(-c2ccccc2)c1C(=O)Nc1ccc(N2CCOCC2)cc1
-12% | Cn1c(N)c(C(=O)COC(=O)C2=NNC(=O)CC2)c(=O)n(C)c1=O
14% | COC(=O)NNC(=O)c1ccc(C(C)(C)C)cc1

Later entries:
VDR inhibitor | canonical_smiles
-6% | Cc1[nH]c2ccccc2c1SCc1ccccc1
-4% | O=C(CN(Cc1ccccc1)C(=O)CNS(=O)(=O)c1ccccc1)NCC1CCCO1 (stereo unspecified)
4% | Cc1nc(N2CCN(C)CC2)c2cc(-c3ccccc3)sc2n1
0% | Cc1nc2ncnn2c(C)c1CCC(=O)N1CCc2ccccc2C1
-4% | O=C(NCCc1ccccc1)c1cnn(-c2ccc(F)cc2)c1-n1cccc1
7% | COc1ccc2sc(NC(=O)NC(=O)c3c(Cl)cccc3Cl)nc2c1
-14% | CCCc1cc(=O)[nH]c(SCC(=O)Nc2ccc(N3CCCCC3)cc2)n1
1%&-13% | Nc1nc2nc(-c3ccccc3)cc(=O)n2[nH]1
14% | O=C(CN1C(=O)c2ccccc2C1=O)N(CCO)Cc1ccccc1
-15% | CC(C)Oc1ccc(CC(=O)NNC(=S)Nc2ccccc2)cc1

Further records:
VDR inhibitor | canonical_smiles
9% | CSCCCNC(=S)N1CCN(c2ccc(C(C)=O)cc2)CC1
4% | COc1ccc(C(=O)C2CCCN(C(=O)Cn3ccc(C)n3)C2)cc1OC (stereo unspecified)
-4% | COC(=O)C1=C(C)N(CCCC(=O)O)C(=O)NC1c1ccccc1OS(=O)(=O)c1ccccc1[N+](=O)[O-] (stereo unspecified)
9% | Cc1ccc(S(=O)(=O)Nc2c(O)c3ccccc3oc2=O)cc1
2% | Cc1cc(CC(C)C)n(-c2nc3ccccc3c(=O)n2OCC(=O)N(C)C)n1
1% | O=C(NCc1ccco1)c1sc2ccccc2c1Cl
12% | COC(=O)C1=C(C)NC(C)=C(C(=O)OC)C1c1ccc(OC(=O)c2ccco2)cc1
-7% | CC(C)(C)C(=O)Nc1cc(S(=O)(=O)N2CCCCC2)ccc1N1CCCCC1
-9% | COc1ccccc1NC(=O)CCNS(=O)(=O)c1ccc2c(c1)CCN2C(C)=O
u | C=CCOc1ccc(/C=C2\SC(=S)N(CCC(=O)O)C2=O)cc1

(next part)
VDR inhibitor | canonical_smiles
-1%&13% | CNC(=O)Cn1nc(-c2ccc(Cl)cc2)c2ccccc2c1=O
-3% | CC(C)C(O)P(=O)(OCc1ccccc1)c1ccc(N(C)C)cc1 (stereo unspecified)
7% | COc1ccc(CCn2nnnc2C(c2ccc(Cl)cc2)N2CCN(C)CC2)cc1OC (stereo unspecified)
1% | Cc1ccc(CC(=O)NCCS(=O)c2ccc(Cl)cc2)cc1 (stereo unspecified)
-33% | Cc1ccc2nc(SCC(=O)Nc3ccc(C#N)cc3)[nH]c2c1
0% | CCc1[nH]c(C)c(C(C)=O)c1C
1% | Cc1nc(-c2cccc(NC(=O)c3ccc(Br)o3)c2)cs1
17% | CC(=O)NCCc1nc2cc(NC(=O)c3ccc([N+](=O)[O-])cc3)ccc2n1C
-13% | O=C(O)CN1C(c2ccccc2)=Nc2ccc(Br)cc2C1c1ccccc1 (stereo unspecified)
18% | Cc1cccc(OCC(=O)N2CCN(C(=O)Cc3ccccc3)CC2)c1

A section from the list above:
VDR inhibitor | canonical_smiles
9% | CSCCCNC(=S)N1CCN(c2ccc(C(C)=O)cc2)CC1
4% | COc1ccc(C(=O)C2CCCN(C(=O)Cn3ccc(C)n3)C2)cc1OC (stereo unspecified)
-4% | COC(=O)C1=C(C)N(CCCC(=O)O)C(=O)NC1c1ccccc1OS(=O)(=O)c1ccccc1[N+](=O)[O-] (stereo unspecified)
9% | Cc1ccc(S(=O)(=O)Nc2c(O)c3ccccc3oc2=O)cc1
2% | Cc1cc(CC(C)C)n(-c2nc3ccccc3c(=O)n2OCC(=O)N(C)C)n1
1% | O=C(NCc1ccco1)c1sc2ccccc2c1Cl
12% | COC(=O)C1=C(C)NC(C)=C(C(=O)OC)C1c1ccc(OC(=O)c2ccco2)cc1
-7% | CC(C)(C)C(=O)Nc1cc(S(=O)(=O)N2CCCCC2)ccc1N1CCCCC1
-9% | COc1ccccc1NC(=O)CCNS(=O)(=O)c1ccc2c(c1)CCN2C(C)=O
u | C=CCOc1ccc(/C=C2\SC(=S)N(CCC(=O)O)C2=O)cc1
-1%&13% | CNC(=O)Cn1nc(-c2ccc(Cl)cc2)c2ccccc2c1=O
-3% | CC(C)C(O)P(=O)(OCc1ccccc1)c1ccc(N(C)C)cc1 (stereo unspecified)
7% | COc1ccc(CCn2nnnc2C(c2ccc(Cl)cc2)N2CCN(C)CC2)cc1OC (stereo unspecified)
1% | Cc1ccc(CC(=O)NCCS(=O)c2ccc(Cl)cc2)cc1 (stereo unspecified)
-33% | Cc1ccc2nc(SCC(=O)Nc3ccc(C#N)cc3)[nH]c2c1
0% | CCc1[nH]c(C)c(C(C)=O)c1C
1% | Cc1nc(-c2cccc(NC(=O)c3ccc(Br)o3)c2)cs1

(list continues)
VDR inhibitor | canonical_smiles
-3% | OCc1nnn(-c2ccccc2)c1CO
3% | CCC(CC)Nc1ccc(C(CC(N)=O)NC(=O)Cc2cccc3ccccc23)cc1[N+](=O)[O-] (stereo unspecified)
8% | O=C(CN1C(=O)COc2ccccc21)NCCCN1CCCC1
36%[activator] | Cc1ccc(NC(=S)NCc2ccc(Cl)cc2)c(C)c1
1% | CC[C@](C)(CN(C)C)OC(=O)c1ccccc1
-1% | O=C1Nc2ccc(C(=O)O)c(O)c2C1=O
16% | Cc1c(NC(=S)NC(=O)c2cc3ccccc3o2)cccc1C(=O)O
-15% | COc1cccc(CN(C(=O)/C=C/c2ccc(Cl)cc2)C2CCS(=O)(=O)C2)c1 (stereo unspecified)
-2% | CCOc1ccc(C(=O)Nc2ccc3nc(SCC(=O)N4CCc5ccccc54)sc3c2)cc1
-6% | CCN(CC)C(=O)c1sc2c(c1C)c(=O)n(-c1ccc(C)c(C)c1)c(=O)n2Cc1cccc(Cl)c1

(more compounds)
VDR inhibitor | canonical_smiles
-5% | O=C(c1ccc(F)cc1)N1CCC(N2CCCCCC2)CC1
-1% | O=c1oc2ccccc2cc1-c1cn2cccnc2n1
-16% | CC1CCCCN1C(=O)C12CCC(C)(C(=O)C1)C2(C)C (stereo unspecified)
-18% | CN(C(=O)c1coc(=O)c2ccccc12)c1ccc(Br)cc1
-4% | CC(=O)c1c(N)c(C#N)c(C)n1-c1ccc(Br)cc1
3% | O=C(N/N=C/c1ccc(Br)s1)c1ccc([N+](=O)[O-])cc1
-4% | O=C(COC(=O)c1cccc(F)c1)NC(=O)NC1CCCC1
14% | O=C(N/N=C/c1ccc(N2CCOCC2)cc1)c1ccccc1NS(=O)(=O)c1cccs1
7% | Cc1ccc(Nc2c(-c3c[nH]c4ccccc34)nc3cc(C)ccn23)cc1
-24% | O=C(CSc1nc2ncc(Br)cc2[nH]1)c1ccc([N+](=O)[O-])cc1

Other compounds:
VDR inhibitor | canonical_smiles
4% | CCOC(=O)N1CCN(S(=O)(=O)c2cccc3nonc23)CC1
2% | CC(=O)Nc1ccc(-c2cn3cccnc3n2)cc1
27% | CCN(CC)CCCNC(=O)c1cc(-c2ccc(Cl)cc2)on1
7% | Cn1cccc1CNC1CCCCC1
-12% | CC1CCN(C(=O)CNC(=O)Cc2ccccc2)CC1
-28% | Cc1noc(NS(=O)(=O)c2ccc(NC(=O)Cc3ccc([N+](=O)[O-])cc3)cc2)c1C
-17% | CC1C(C)C(O)(c2ccccc2)CCN1C (stereo unspecified)
-7% | CC(C)(C)c1ccccc1OCCCCN1CCCC1
-9% | Cc1ccccc1NC(=O)c1c(C)cc(=O)oc1C
-20% | Cc1oc(-c2cccc(Cl)c2)nc1CN1CCC(C(=O)NCc2ccc(F)cc2)CC1

Carrying on:
VDR inhibitor | canonical_smiles
-5% | CC(NC(=O)CN(Cc1ccccc1)S(=O)(=O)c1ccccc1)c1cccnc1 (stereo unspecified)
-16% | CC1(C(=O)Nc2ccc3ccccc3c2)CC1(Br)Br (stereo unspecified)
2% | CCc1ccccc1NC(=O)N1CCN(C(=O)c2nsc3ccccc23)CC1
-7% | CCN(C(=O)COC(=O)Cn1c(C)csc1=O)c1c(N)n(Cc2ccccc2)c(=O)[nH]c1=O
4% | O=C(N/N=C/c1cccnc1)c1ccccc1OCc1ccc(Br)cc1
-8% | COc1ccccc1NCC(=O)c1ccc(C)c(C)c1
1% | COc1ccc(NC(=O)C2CCCN(S(=O)(=O)c3cn(C)cn3)C2)cc1Cl (stereo unspecified)
-1% | COc1ccc(OC)c(NC(=O)c2cc3c(=O)oc4ccccc4c3s2)c1
-1% | COc1ccccc1NC(=O)CSc1nc(N)cc(N)n1
12% | O=C(Nc1cccc2c1CCCC2)c1ccc(Br)o1

Continued.
VDR inhibitor | canonical_smiles
9% | CSC1=NC2(CCN(C(=O)NC3CCCCC3)CC2)N=C1c1ccc(C(C)(C)C)cc1
0% | CCOC(=O)CSC1=C(C#N)C(c2sccc2C)CC(=O)N1 (stereo unspecified)
-27% | CC(C)(C)NC(=O)NC(=O)COC(=O)C1(C)CC1(Cl)Cl (stereo unspecified)
16% | Cc1nc2ncnn2c(C)c1CCC(=O)NC(C)c1ccc2c(c1)OCCO2 (stereo unspecified)
-9% | CC(C(=O)Nc1ccccn1)(c1ccccc1)c1ccccc1
u | Cc1ccc(NNC(=O)c2cccs2)cc1Cl
-4% | O=C(N/N=C\c1cn(-c2ccccc2)nc1-c1ccccc1)c1ccc(Br)o1
5% | CCC1(C2=CCCCC2)C(=O)NC(=S)N=C1N (stereo unspecified)
-4% | Cc1cccn2c(CN(C)CCC3CCCCO3)c(C(=O)N3CCCCC3)nc12 (stereo unspecified)
-4% | NC(N)=NN=C1CCCCCCCCCCC1

The list continues.
VDR inhibitor | canonical_smiles
10% | CC(C)(C)C1CCc2c(sc(NC(=O)C3CCCO3)c2C(N)=O)C1 (stereo unspecified)
0% | Cc1cccc(C(=O)Nc2ccc(C(=O)N3CCCCC3C)cc2)c1 (stereo unspecified)
20% | Cc1ccc(C)c(NC(=O)CN(C)C(=O)Cc2coc3cc(C)c(C)cc23)c1
-11% | O=C(NCCNc1ccc([N+](=O)[O-])cc1)c1ccco1

These rows are one share of the data, so the mix of outcomes need not match the whole.
